# PABP FP inh: PABP poly(A) RNA binding inhibitors, primary screen, biochemical, fluorescence polarization, uHTS | Polyadenylate-binding protein 1 (Homo sapiens), P11940 | inhibition, % at 35 µM | 290,000 compounds, 1% hits | AID 2014, 2009;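 active = 50% or more with normal probe brightness, or confirmed in later tests; inconclusive = above 50% with abnormal brightness, or retests that disagree; inactive = below 50% or failed in later tests; about a fifth of its hits are not listed in these tables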;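 also: calls also rest on retests at 20 µM and on dose response follow-up; controls were probe without protein and protein plus probe with vehicle; some compounds called inactive have numbers as strong as hits; many hits fall short of the cut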
# Env fusion inh: inhibitors of HIV-1 Env-driven cell-cell fusion, primary screen, HeLa-JRFL effector, CEM21 target cells, luciferase; AID 651610, 2012; 360,000 compounds, 1.1% hits; inhibition, % at 12.3 µM;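 active = mean replicate inhibition score of at least 50 and every replicate individually at or above 50; inconclusive = only one of the two criteria met; inactive = mean below 50 and not all replicates reaching 50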;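 also: 0% = plate neutral controls and 100% = maraviroc near 300 nM; one replicate is shown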
# Rce1 inhib: yeast Rce1p protease inhibitors, primary screen, biochemical, fluorescence, cell-free homogeneous. CAAX prenyl protease 2 (Saccharomyces cerevisiae (strain ATCC 204508 / S288c)), Q03530. yeast membranes, quenched prenylated peptide cleavage fluorescence. calls only. 290,000 compounds, 0.27% hits. AID 2563, 2010;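 active = fall in fluorescence gain of 50% or more versus controls, with final raw signal at or below 3038400; inconclusive = same 50% fall but final raw signal above 3038400; inactive = fall in fluorescence gain under 50%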;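 also: plate controls were neutral control wells for no effect and wells lacking membranes for full effect; tested at 10 µM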
# Target sequence (Q03530 whole entry, looked up): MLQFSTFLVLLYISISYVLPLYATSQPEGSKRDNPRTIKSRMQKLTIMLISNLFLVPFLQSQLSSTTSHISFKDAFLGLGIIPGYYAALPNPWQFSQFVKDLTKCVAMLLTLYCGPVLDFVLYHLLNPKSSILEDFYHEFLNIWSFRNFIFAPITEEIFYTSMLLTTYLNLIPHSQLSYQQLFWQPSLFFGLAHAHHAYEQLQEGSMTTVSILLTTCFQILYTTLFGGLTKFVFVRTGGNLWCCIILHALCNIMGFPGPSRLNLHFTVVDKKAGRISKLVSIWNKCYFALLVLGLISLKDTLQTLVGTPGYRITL
# eIF4H inh: human eIF4H binding inhibitors, primary screen, translation initiation inhibitor project, biochemical, uHTS, fluorescence polarization. Eukaryotic translation initiation factor 4H (Homo sapiens), Q15056. 290,000 compounds, 0.94% hits. eIF4H fluorescence polarization binding assay. inhibition, % at 35 µM;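 active = 50% or more with normal probe brightness, or confirmed in later tests; inconclusive = above 50% with abnormal brightness, or retests that disagree; inactive = below 50% or failed in later tests; about a fifth of its hits are not listed in these tables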;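 also: calls also rest on retests at 20 µM and on dose response follow-up; 0% = protein and probe with vehicle and 100% = probe without protein; strong numbers were not always called active; many hits fall short of the cut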
# MT1-MMP act inh: blockers of MT1-MMP proenzyme processing, primary screen, HT1080 RFP-PRO-GFP cells, GFP/RFP fluorescence; GFP/RFP ratio fluorescence, overnight; percent of plate control window, DMSO zero; GFP/RFP ratio change, % at 20 µM; 360,000 compounds, 0.061% hits;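 active = GFP/RFP ratio change of at least 30% with cell ATP level not reduced by more than half and red fluorescence within 50% of control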; also: strong numbers were not always called active
#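 Assay system: HT1080 cells carrying an RFP-PRO-GFP reporter | Dosing: Single dose of 20 µM compound, 1% DMSO final | Incubation: Cells overnight before dosing, compound overnight, 37 °C, 5% CO2 | Evaluation: GFP/RFP fluorescence ratio | Control set: DMSO and RFP-L50D-GFP cell wells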
# CSC inhib: cancer stem cell viability inhibitors, primary screen, luminescence; cancer stem cell-like cells viability; inhibition, % at 7.5 µM; 300,000 compounds, 1.1% hits; AID 2717, 2010;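 active = mean at 75% or more and at least half the replicates too; inconclusive = mean and replicates disagree; tested in HMLE shEcad cells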;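 also: 0% = median of negative and 100% = median of positive control wells; the first replicate is given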
# Yeast UUG start: modulators of yeast start codon fidelity, primary screen, whole organism, S. cerevisiae, single point, plate reader; activity score, % at 18.7 µM; 350,000 compounds, 0.13% hits; AID 602363, 2012; S. cerevisiae UUG-firefly luciferase reporter, luminescence/redox ratio;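 active = replicate mean at a twofold rise or more, about +100% in these data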;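 also: firefly luciferase made from a UUG start codon reports start codon fidelity; reporter light over untreated wells divided by growth signal over untreated wells; some hits fall short of that in this replicate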
# eIF4H inh retest: recorded beside eIF4H inh, whose call it bears; inhibition, %; compound at 20 µM; confirmation average;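 mean of two retest wells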
# PABP FP inh retest: further read-out of PABP FP inh, marked with its call; inhibition, %; compound at 20 µM; confirmation repeats;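 mean of two retest wells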
# MT1-MMP act inh RFP: second read-out of MT1-MMP act inh, no call of its own (marks repeat the call); RFP signal change, %; measured here: RFP expression control read;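 0 = vehicle wells; hits needed this value within 50% of zero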
# * hit, by the source's call; i = inactive; ? = inconclusive; . = not tested or not shown; & = joins results of further samples; [ ] = remark or other dose.
SMILES,PABP FP inh,Env fusion inh,Rce1 inhib,eIF4H inh,MT1-MMP act inh,MT1-MMP act inh RFP,CSC inhib,Yeast UUG start,others
CNNC(=O)C(=O)NNS(=O)(=O)c1ccccc1,17,-3,i,-4,3,0,-4,-11,
CC1Cc2ccccc2N1S(=O)(=O)c1cccc(C(=O)N2CC(=O)Nc3ccccc32)c1 (centres undefined),8,27,i,10,0,-5,-1,5,
CCN(CC)CC(=O)NC1CCCc2c1cnn2-c1cc(F)cc(F)c1 (centres undefined),.,11,i,.,-1,1,13,9,
O=C(Cc1n[nH]c(=O)c2ccccc12)Nc1cccc(S(=O)(=O)N2CCCC2)c1,-4,7,i,2,0,-2,-1,-4,
Cc1c(C2(O)C(=O)Nc3ccc(F)cc32)c(=O)n(-c2ccccc2)n1C (centres undefined),-7,-71,i,-7,-7,3,4,8,
COc1cc(NC(=O)C2CCCO2)c(OC)cc1Cl (centres undefined),-3,.,i,-3,-1,0,-2,4,
C=CCOc1ccc2c(c1)c(=O)cc(C(=O)O)n2CC,17,12,i,5,7,9,-9,-2,
CCc1nc(SCc2ccc([N+](=O)[O-])cc2)n[nH]1,13,-5,i,-1,-1,0,-4,-2,
N/C(=N\OC(=O)COc1ccc(Cl)cc1)c1cccnc1,-8,.,i,-2,4,-5,1,-2,
COc1ccccc1NS(=O)(=O)c1cccc(NC(=O)Nc2ccccc2)c1,-13,11,i,10,-2,-19,3,-13,
O=C(CSCc1ccco1)NC1CCCC1,-1,-15,i,-3,-1,9,-4,.,
Cc1nc2ccc(S(=O)(=O)NCC(=O)NCCc3ccc(Cl)cc3)cc2s1,5,8,i,-5,1,2,-10,-15,
CCCN1CCC(=O)N([C@H](CN=[N+]=[N-])CC(C)C)CC1,8,-15,i,-2,-3,3,-4,-12,
CC(C)CNC(=O)COC(=O)c1ccccc1SCC(=O)NCC(C)C,4,2,i,0,0,0,.,-4,
O=C(CNC1CCCC1)Nc1ccc(S(=O)(=O)N2CCCCC2)cc1,2,16,i,-5,2,3,22,-8,
CCOc1ncccc1C(=O)Nc1cc(S(=O)(=O)N2CCCCCC2)ccc1OC,.,14,.,.,2,-1,.,-10,
Cc1ccccc1Cn1ccc(NC(=O)c2nn(C)cc2[N+](=O)[O-])n1,6,11,i,-8,-9,-16,32,.,
CN(C)c1ccc(/C=N/N2C(=O)c3ccccc3C2=O)cc1,-6,-10,i,2,-2,1,0,.,
COc1ccc(CN2C(=O)CCC2(C)C(=O)NCc2cccnc2)c(OC)c1 (centres undefined),4,-16,i,-4,5,6,4,4,
N#Cc1c(Cl)nsc1NC(=O)c1ccccc1,0,60*,i,18,-26,-39,46,.,
Cc1ccnc(SCc2cc(=O)c(OC(=O)c3ccco3)co2)n1,98*,-26,i,7.6*,.,.,-4,.,eIF4H inh retest=77*;PABP FP inh retest=54*
COc1ccc(NC(=O)C2Cc3c(-c4ccc(Cl)cc4)ccnc3O2)cc1 (centres undefined),.,14,.,.,3,-5,.,-11,
COc1ccc(F)cc1C(=O)C1CCCN(Cc2ccc(Sc3nncn3C)o2)C1 (centres undefined),-5,9,i,-12,-2,0,-9,.,
Cc1nc(NCc2ccccn2)c2ccccc2n1,3,.,i,-9,-2,-12,15,-23,

# The last 7 compounds of the section above are carried over, then new ones follow.
SMILES,PABP FP inh,Env fusion inh,Rce1 inhib,eIF4H inh,MT1-MMP act inh,MT1-MMP act inh RFP,CSC inhib,Yeast UUG start,others
CN(C)c1ccc(/C=N/N2C(=O)c3ccccc3C2=O)cc1,-6,-10,i,2,-2,1,0,.,
COc1ccc(CN2C(=O)CCC2(C)C(=O)NCc2cccnc2)c(OC)c1 (centres undefined),4,-16,i,-4,5,6,4,4,
N#Cc1c(Cl)nsc1NC(=O)c1ccccc1,0,60*,i,18,-26,-39,46,.,
Cc1ccnc(SCc2cc(=O)c(OC(=O)c3ccco3)co2)n1,98*,-26,i,7.6*,.,.,-4,.,eIF4H inh retest=77*;PABP FP inh retest=54*
COc1ccc(NC(=O)C2Cc3c(-c4ccc(Cl)cc4)ccnc3O2)cc1 (centres undefined),.,14,.,.,3,-5,.,-11,
COc1ccc(F)cc1C(=O)C1CCCN(Cc2ccc(Sc3nncn3C)o2)C1 (centres undefined),-5,9,i,-12,-2,0,-9,.,
Cc1nc(NCc2ccccn2)c2ccccc2n1,3,.,i,-9,-2,-12,15,-23,
CC1(C)NC(=O)N(CC(O)COc2cccc(F)c2)C1=O (centres undefined),-1,28,i,-11,-1,2,8,-6,
O=C(Nc1ccccc1)Nc1nc2ccccc2s1,6,-72,i,-3,-3,-2,2,-11,
COc1ccc(N(CCCN2C(=O)c3cccc4cccc(c34)C2=O)C(=O)c2ccncc2)cc1,6,-1,i,0,3,-2,11,.,
COc1cc(N)c(Cc2nccc3cc(OC)c(OC)cc23)cc1OC,?,-1,i,?,-14,-5,-1,.,
COc1ccc(COC(=O)CNC(=O)C2CCCCC2)cc1F,.,-8,.,.,-1,2,-11,.,
Cc1ccnc(NC(=O)CCCNC(=O)c2ccc(Cl)cc2)c1,.,-44,i,.,0,2,-7,.,
CCN(C(=O)CSc1nncn1-c1ccccc1)C1CCS(=O)(=O)C1 (centres undefined),.,-2,i,.,-4,6,-8,-19,
CC(=O)c1cccc(NC(=O)C(C)OC(=O)CNC(=O)c2ccc(C)s2)c1 (centres undefined),-2,0,i,0,-1,1,.,.,
CCOc1cc(S(=O)(=O)NCCc2ccc(OC)c(OC)c2)c(OCC)cc1-n1cnnn1,3,-10,i,-5,7,6,-18,1,
Cc1ccccc1CN(c1ccc(C(=O)NCC2CCCO2)cc1)S(C)(=O)=O (centres undefined),-2,-7,i,0,4,1,3,.,
CC(=O)c1c(CC(=O)O)[nH]n(-c2nc3ccccc3s2)c1=O,-6,-47,i,-9,8,5,35,-28,
COCC1CCN(C(=O)c2cc(COc3ccc(-n4cncn4)cc3)on2)C1 (centres undefined),9,-5,i,-14,3,2,-9,-19,
O=S(=O)(c1ccc(Cl)c(F)c1)N1CCC(c2nc(-c3ccncc3)no2)CC1,-5,20,i,-2,3,-9,62,-2,
COc1ccccc1[C@@]1(C)ON(c2ccccc2C(F)(F)F)C1=O,.,3,.,.,5,3,58,-9,
Cc1ccc(OCC(=O)N2CCOCC2)c([N+](=O)[O-])n1,-7,5,i,4,-1,-1,-7,-4,
O=C(O)CCC(=O)NNC(=O)c1ccc(Br)cc1,-1,-12,i,-13,-2,4,0,.,
Cn1ncc(Br)c1NC(=O)c1cc(Cl)cc(Cl)c1,-4,.,i,2,0,-1,.,-10,
Cc1noc(C)c1NC(=O)N(C)C[C@@H]1Oc2ncc(Br)cc2C(=O)N([C@@H](C)CO)C[C@H]1C,.,4[16.7 µM],.,.,9,9,.,-1&-11,
O=C(NC1CCCC1)c1cc(-c2ccc(Cl)c(Cl)c2)on1,-9,-39,i,-10,-1,-1,2,3,
CCOc1ccc(C(=O)/C=C/Nc2ccc(S(=O)(=O)Nc3onc(C)c3C)cc2)cc1,-1,.,i,2,2,0,-9,-13,
CC(N=C1NS(=O)(=O)c2ccccc21)C(=O)Nc1ccc(F)cc1Cl (centres undefined),.,0,.,.,-2,0,.,-4,
N#CCSc1nnc(CNc2ccc(F)cc2)o1,53*,-45,i,111*,-3,5,-13,-11,
O=C1COc2ccc(C(=O)COC(=O)Cn3cnc4ccccc43)cc2N1,-10,-43,.,7,7,0,7,-14,
CCN=C(Nc1ccc(Cl)cc1)c1cccnc1,-5,21,i,-5,-1,1,3,-21,
Cc1coc(NC(=O)CSc2nc(-c3ccc(Cl)cc3)cc(C(F)(F)F)c2C#N)n1,119,-95,i,125,-18,0,-17,-13,eIF4H inh retest=-7;PABP FP inh retest=1
COC(=O)c1cc(OC)c(OC)cc1NC(=O)c1cc(OC)cc(OC)c1,4,16,i,6,-1,-1,-10,.,
COc1ccc2nc(N3C(=O)C(O)=C(C(=O)c4ccco4)C3c3ccc(OC)c(OC)c3)sc2c1 (centres undefined),.,7,.,.,10,0,.,-6,
O=C(NCc1ccccc1)Oc1cccc(Cl)c1,4,-33,i,-15,0,1,-7,-21,
Cn1c(CSCc2ccccc2)nnc1SCC(=O)Nc1ccc(C(=O)O)cc1,2,12,i,-11,-1,2,19,.,
COc1ccc(-n2c(=S)[nH]c3cc(C(=O)NCc4cccnc4)ccc3c2=O)cc1,5,-3,i,-8,4,-3,-9,-16,
C[C@H](NC(=O)[C@@H]1Cc2ccccc2CN1)C(=O)NC[C@H]1CC[C@H](C(=O)O)CC1,1,-2,i,-8,0,3,-10,-8,
O=C(NCCCN1CCOCC1)c1ccccc1,9,.,i,9,2,4,-4,-17,
O=C(COc1ccc(/C=N/NC(=O)c2ccc(O)cc2)cc1)Nc1ccc([N+](=O)[O-])cc1,94*,0,i,-1.7*,3,4,14,6,eIF4H inh retest=86*;PABP FP inh retest=77*
Oc1ccccc1Nc1ccccn1,-4,6,i,-3,1,-1,11,-9,
NS(=O)(=O)c1cccc(NC(=O)COC(=O)c2cc(-c3ccc(Cl)cc3)nc3ccccc23)c1,-7,3,i,0,6,0,17,-5,
CCC(=O)NC(=S)Nc1cccc(Cl)c1N1CCCC1,-6,24,i,-5,-13,-10,.,-5,

# Copied from the entries so far (five entries):
SMILES,PABP FP inh,Env fusion inh,Rce1 inhib,eIF4H inh,MT1-MMP act inh,MT1-MMP act inh RFP,CSC inhib,Yeast UUG start,others
CNNC(=O)C(=O)NNS(=O)(=O)c1ccccc1,17,-3,i,-4,3,0,-4,-11,
CC1Cc2ccccc2N1S(=O)(=O)c1cccc(C(=O)N2CC(=O)Nc3ccccc32)c1 (centres undefined),8,27,i,10,0,-5,-1,5,
CCN(CC)CC(=O)NC1CCCc2c1cnn2-c1cc(F)cc(F)c1 (centres undefined),.,11,i,.,-1,1,13,9,
O=C(Cc1n[nH]c(=O)c2ccccc12)Nc1cccc(S(=O)(=O)N2CCCC2)c1,-4,7,i,2,0,-2,-1,-4,
Cc1c(C2(O)C(=O)Nc3ccc(F)cc32)c(=O)n(-c2ccccc2)n1C (centres undefined),-7,-71,i,-7,-7,3,4,8,

# More records follow:
SMILES,PABP FP inh,Env fusion inh,Rce1 inhib,eIF4H inh,MT1-MMP act inh,MT1-MMP act inh RFP,CSC inhib,Yeast UUG start,others
Oc1c(CN2CCCCC2)cc(COCc2ccccc2)c2cccnc12,-6,-24,i,8,3,-6,0,-34,
Cc1cccn2c(=O)c(C=O)c(N3CC(C)OC(C)C3)nc12 (centres undefined),9,15,i,-2,-1,3,1,.,
COc1cc(C2c3cc4c(cc3C3OC(=O)C2C3CO)OCO4)cc(OC)c1OC (centres undefined),.,-147,.,.,21,2,.,-8,
CC(=O)NC(=S)Nc1ccc(NC(=S)NC(=O)c2ccc([N+](=O)[O-])cc2)cc1,8,-13,i,-3,10,1,-3,.,
